From PubChem BioAssay
GIRK2 act – activators of human GIRK2 potassium channels. P48051. HEK293-GIRK2 thallium flux, Thallos fluorescence. calls only for hits at 25 µM. hit rate 0.05% among 63,000;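 active = among the strongest 0.2% of first-round signals and kept after retests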;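 also: first round at about 10 µM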
Target sequence (P48051 whole entry, looked up): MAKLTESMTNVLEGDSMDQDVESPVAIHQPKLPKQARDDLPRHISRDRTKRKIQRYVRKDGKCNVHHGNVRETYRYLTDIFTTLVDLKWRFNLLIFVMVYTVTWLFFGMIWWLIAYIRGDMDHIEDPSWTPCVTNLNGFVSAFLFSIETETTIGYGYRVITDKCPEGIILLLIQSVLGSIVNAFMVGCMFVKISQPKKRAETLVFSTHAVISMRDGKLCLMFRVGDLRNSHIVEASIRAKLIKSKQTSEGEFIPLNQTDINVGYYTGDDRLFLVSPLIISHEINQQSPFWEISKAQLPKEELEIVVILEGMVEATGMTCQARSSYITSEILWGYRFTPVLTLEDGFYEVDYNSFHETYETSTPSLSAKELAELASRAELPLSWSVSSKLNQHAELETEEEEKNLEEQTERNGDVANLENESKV
Calls only.

What do the screens show for `CC(CCc1ccccc1)NC(=O)c1sccc1N(C)S(=O)(=O)c1ccccc1` (centres undefined)?
GIRK2 act: inactive

How did Cc1ccc(N2CC(C(=O)N3CCc4nc(NC(=O)c5ccco5)sc4C3)CC2=O)cc1C (centres undefined) do in these assays?
GIRK2 act: inactive

What do the screens show for `O=C(Nc1nc2c(s1)CN(C(=O)/C=C/c1ccccc1Cl)CC2)C1CCCO1` (centres undefined)?
GIRK2 act: inactive

Results for O=C(Nc1cccc(-c2nc3ccccc3[nH]2)c1)NC1CCCC1 ?
GIRK2 act: inactive

What do the screens show for `COc1ccc(-c2ccc(N3CCCC(C(=O)NCc4cccnc4)C3)nn2)cc1` (centres undefined)?
GIRK2 act: inactive

Results for Cc1cc(C(=O)N2CCN(C(=O)C3CC3c3ccccc3)CC2)no1 (centres undefined) ?
GIRK2 act: inactive

What do the screens show for `CCCNC(=O)c1snc(-c2ccccn2)c1NC(=O)C(C)C`?
GIRK2 act: inactive

Results for Cc1cc(C)c(S(=O)(=O)N2CCCCC2)c(C)c1N(C)S(=O)(=O)c1ccccc1 ?
GIRK2 act: inactive

Results for Cn1c(=O)c2c(nc3n2CCN3c2ccc(O)cc2)n(C)c1=O ?
GIRK2 act: inactive

How did CCCCS(=O)(=O)NC1CCCC(OC(=O)Nc2ccc(F)cc2)C1 (centres undefined) do in these assays?
GIRK2 act: inactive

How did CCc1nnc(C2CCN(C(=O)c3ccc(OC)cc3)CC2)s1 do in these assays?
GIRK2 act: inactive

What do the screens show for `COc1ccc(CCC(=O)N(CCc2cccs2)C2CC2)cc1`?
GIRK2 act: inactive

Results for NC(=O)c1ccccc1NC(=O)C1COCC(=O)N1Cc1cccs1 (centres undefined) ?
GIRK2 act: inactive

How did COc1cc(OC)cc(-c2noc(-c3nn(-c4cccc(SC)c4)ccc3=O)n2)c1 do in these assays?
GIRK2 act: inactive

How did CCOC(=O)N1CCN(C(=O)Nc2nc(CC(=O)NCc3cccnc3)cs2)CC1 do in these assays?
GIRK2 act: inactive

Results for COc1ccc(CC(=O)Nc2nc(CN3CCc4ccccc4C3)cs2)cc1OC ?
GIRK2 act: inactive

What do the screens show for `COc1cccc(-n2cc(C(=O)OCC(=O)OC(C)C)c3ccccc3c2=O)c1`?
GIRK2 act: inactive

Results for Cc1ccc(-c2csc3c(=O)n(C)c(SCC(=O)Nc4ccc(C#N)cc4)nc23)cc1 ?
GIRK2 act: inactive

What do the screens show for `O=C(Oc1ccc2c(c1)O/C(=C\c1cccnc1)C2=O)c1cccs1`?
GIRK2 act: inactive

What do the screens show for `COc1ccc(-n2nnc(C(=O)N3CCc4ccccc4C3)c2-c2cccnc2)cc1`?
GIRK2 act: inactive

5 compounds already listed, arranged by formula weight, low to high:
Results for Cc1cc(C(=O)N2CCN(C(=O)C3CC3c3ccccc3)CC2)no1 (centres undefined) ?
GIRK2 act: inactive

How did CCCCS(=O)(=O)NC1CCCC(OC(=O)Nc2ccc(F)cc2)C1 (centres undefined) do in these assays?
GIRK2 act: inactive

What do the screens show for `COc1cccc(-n2cc(C(=O)OCC(=O)OC(C)C)c3ccccc3c2=O)c1`?
GIRK2 act: inactive

How did COc1cc(OC)cc(-c2noc(-c3nn(-c4cccc(SC)c4)ccc3=O)n2)c1 do in these assays?
GIRK2 act: inactive

How did Cc1ccc(N2CC(C(=O)N3CCc4nc(NC(=O)c5ccco5)sc4C3)CC2=O)cc1C (centres undefined) do in these assays?
GIRK2 act: inactive

The main list resumes; the 2 compounds before the break are reprinted first.
What do the screens show for `O=C(Oc1ccc2c(c1)O/C(=C\c1cccnc1)C2=O)c1cccs1`?
GIRK2 act: inactive

What do the screens show for `COc1ccc(-n2nnc(C(=O)N3CCc4ccccc4C3)c2-c2cccnc2)cc1`?
GIRK2 act: inactive

How did Cc1ccc(C(O)CNC(=O)C(=O)Nc2ccc3c(c2)OCO3)o1 (centres undefined) do in these assays?
GIRK2 act: inactive

What do the screens show for `COc1ccc(NC(=O)Cn2cc(-c3nc(-c4ccc(Cl)cc4)no3)ccc2=O)cc1OC`?
GIRK2 act: inactive

Results for CCCCCCCC/C=C\CCCCCCCC(=O)OC[C@H](CO)OC(=O)CCCCCCC/C=C\CCCCCCCC ?
GIRK2 act: inactive

Results for CC(CCc1ccccc1)NC(=O)CCc1csc2nc(C3CC3)cn12 (centres undefined) ?
GIRK2 act: inactive

What do the screens show for `O=C(Cn1nc(-c2cccs2)ccc1=O)Nc1ccc(S(=O)(=O)Nc2nccs2)cc1`?
GIRK2 act: inactive

Results for O=C(OC1CCOC1=O)c1cn(-c2cccc(F)c2)c(=O)c2ccccc12 (centres undefined) ?
GIRK2 act: inactive

Results for CCN(CC)C(=O)CCNS(=O)(=O)c1cc(N(C)S(C)(=O)=O)c(C)cc1C ?
GIRK2 act: inactive

Results for COc1cccc(S(=O)(=O)NCc2ccc(C(=O)NCc3ccccn3)cc2)c1 ?
GIRK2 act: inactive

Results for Cn1nc(-c2ccc(F)cc2)cc1C(=O)Nc1cnoc1 ?
GIRK2 act: inactive

Results for Cc1nn(-c2ccccc2)c2ncc(C(=O)N(C)c3ccccc3)c(Cl)c12 ?
GIRK2 act: inactive

How did COc1ccccc1C(=O)Nc1cnc(Oc2ccccc2F)nc1 do in these assays?
GIRK2 act: inactive

How did CC(C)Cc1cnc2c(c1SCC(=O)N1CCCCCC1)c(=O)n(C)c(=O)n2C do in these assays?
GIRK2 act: inactive

How did CSc1ccc(/C=C2\C=C(CC(=O)NCc3ccccc3)c3cc(F)ccc32)cc1 do in these assays?
GIRK2 act: inactive

What do the screens show for `CCOc1ccc(S(=O)(=O)Nc2ccc3c(c2)N(S(=O)(=O)c2ccc(C)cc2)CCC3)cc1`?
GIRK2 act: inactive

Results for COc1ccccc1CNC(=O)C(=O)Nc1ccc(OC)c(OC)c1 ?
GIRK2 act: inactive

Results for O=C(NCC1CCN(Cc2ccsc2)CC1)c1c(F)cccc1Cl ?
GIRK2 act: inactive

How did Cc1onc(-c2ccccc2Cl)c1C(=O)N1CCC(Oc2nc3ccccc3s2)CC1 do in these assays?
GIRK2 act: inactive

What do the screens show for `Cc1nc(C)n(CC(O)COc2ccc3c4c(c(=O)oc3c2)CCC4)n1` (centres undefined)?
GIRK2 act: inactive

What do the screens show for `NC(=O)c1oc2ccccc2c1NC(=O)CCS(=O)(=O)Cc1ccccc1`?
GIRK2 act: inactive

What do the screens show for `COC(=O)CSc1cc(C(F)(F)F)c2cc3c(cc2n1)OCO3`?
GIRK2 act: inactive

Results for O=C(Nc1cc(OCc2ccc3c(c2)OCO3)ncn1)c1cc(-c2cccs2)on1 ?
GIRK2 act: inactive

How did Cc1cc(C)n(-c2cc(SCC(=O)Nc3ccccc3)ncn2)n1 do in these assays?
GIRK2 act: inactive

What do the screens show for `CCNC(=O)N(CCc1cccs1)Cc1ccoc1`?
GIRK2 act: inactive

How did O=C(Cn1nc2c3cc(-c4ccc(Cl)cc4)nn3ccn2c1=O)Nc1ccc2c(c1)OCCO2 do in these assays?
GIRK2 act: inactive

How did CCOc1cc(C(NC(=O)c2ccccc2F)NC(=O)c2ccccc2F)ccc1OC do in these assays?
GIRK2 act: inactive

What do the screens show for `Cc1nc(N2CCCC2)nc(C)c1NC(=O)c1cccs1`?
GIRK2 act: inactive

Results for O=C(COc1ccc2c(c1)C(=O)CC2)Nc1ccon1 ?
GIRK2 act: inactive

Results for CNC(=O)C(=O)NCC(c1ccc2c(c1)CCO2)N(C)C (centres undefined) ?
GIRK2 act: inactive

What do the screens show for `O=C(c1csc(-c2ccccc2)n1)N1CCC(Oc2ccc(C(F)(F)F)cn2)CC1`?
GIRK2 act: inactive

Results for COc1ccc(NC(=O)Cn2nc3c4cc(-c5ccc(C)c(C)c5)nn4ccn3c2=O)cc1OC ?
GIRK2 act: inactive

How did O=C(CCCSc1ccc(NC(=O)C2CC2)nn1)NCc1ccc2c(c1)OCO2 do in these assays?
GIRK2 act: inactive

How did COc1cccc(NC(=O)Nc2ccc3c(c2)OCC(C)(C)C(=O)N3CC(C)C)c1OC do in these assays?
GIRK2 act: inactive

Results for O=C(/C=C/c1ccco1)NCCn1nc(C2CC2)n(-c2ccccc2)c1=O ?
GIRK2 act: inactive

What do the screens show for `Cc1ccc2c(=O)c(C(=O)Nc3ccccc3)c[nH]c2n1`?
GIRK2 act: inactive

How did CS(=O)(=O)Nc1ccc([N+](=O)[O-])cc1OC1CCCCC1 do in these assays?
GIRK2 act: inactive

Results for O=C(Nc1ccc2c(c1)OCO2)N1CCC(Cn2cnc3ccccc32)CC1 ?
GIRK2 act: inactive

How did O=C(c1ccc(Cl)s1)N1CC(c2nc(-c3cnccn3)no2)C1 do in these assays?
GIRK2 act: inactive

How did Cn1c(=O)c2c(nc(NCc3ccco3)n2Cc2ccc(Cl)cc2Cl)n(C)c1=O do in these assays?
GIRK2 act: inactive

How did COc1ccc(NC(=O)C(=O)NCC(C)(O)CCSC)c(OC)c1 (centres undefined) do in these assays?
GIRK2 act: inactive

How did O=C(Cc1ccccc1Cl)NCC1CCN(C(=O)c2ccoc2)CC1 do in these assays?
GIRK2 act: inactive

What do the screens show for `O=C(NCCN1CCOCC1)c1ccc2nccnc2c1`?
GIRK2 act: inactive

What do the screens show for `Cc1cnc(NC(=O)Cn2c(=O)[nH]c3ccccc3c2=O)s1`?
GIRK2 act: inactive

How did COc1cccc(Cn2nc3n(C(C)C)c(=O)c4ccc(C(=O)NC(C)C)cc4n3c2=O)c1 do in these assays?
GIRK2 act: inactive

What do the screens show for `Cc1csc(NC(=O)c2cc(=O)c(OCc3ccccc3)cn2C)n1`?
GIRK2 act: inactive

Results for COc1ccc(Cl)cc1S(=O)(=O)NC1(c2nc(-c3ccncc3)no2)CCCCC1 ?
GIRK2 act: inactive

How did CCOC(=O)COc1ccc2c(c1)O/C(=C\c1ccccc1OCC)C2=O do in these assays?
GIRK2 act: inactive

Results for COc1ccc(C)cc1S(=O)(=O)N1CCN(CC(O)C2CC2)CC1 (centres undefined) ?
GIRK2 act: inactive

How did CCn1cnc2c(-c3ccccc3)cn(CC(=O)Nc3cc(OC)ccc3OC)c2c1=O do in these assays?
GIRK2 act: inactive

How did COC(=O)/C(C#N)=C1\SC=C(C)N1c1ccccc1 do in these assays?
GIRK2 act: inactive

Results for O=C(Cn1ncn2nc(-c3ccccc3)cc2c1=O)Nc1ccccc1F ?
GIRK2 act: inactive

What do the screens show for `Cc1ccc2oc(C(=O)NCC3CCCO3)c(C)c2c1` (centres undefined)?
GIRK2 act: inactive

Results for CC(=O)NCC1CCN(c2cnccn2)CC1 ?
GIRK2 act: inactive

How did CCOc1ccccc1NC(=O)Cn1nc2c(N3CCN(c4ccccc4)CC3)nccn2c1=O do in these assays?
GIRK2 act: inactive

What do the screens show for `COCCn1c(=O)c2c(nc3n2CCN3c2ccc(C)cc2C)n(C)c1=O`?
GIRK2 act: inactive

What do the screens show for `C=CCNC(=O)N1CCN(c2nc3c(OC)cccc3s2)CC1`?
GIRK2 act: inactive

Results for COc1ccc(CCNC(=O)c2cc(OCc3ccccc3)no2)cc1 ?
GIRK2 act: inactive

What do the screens show for `O=C(Cn1nc2c(c1NC(=O)c1c(F)cccc1Cl)CSC2)NCC1CCCO1` (centres undefined)?
GIRK2 act: inactive

Results for COc1ccc(C(=O)Nc2nnc(-c3ccc(OC)cc3)o2)cc1 ?
GIRK2 act: inactive

What do the screens show for `O=C(Cc1ccccc1)Nc1nnc(C2CCCCC2)s1`?
GIRK2 act: inactive

How did COc1ccc(N(C)S(=O)(=O)c2ccsc2C(=O)O)cc1 do in these assays?
GIRK2 act: inactive

6 neighbouring compounds already listed:
What do the screens show for `C=CCNC(=O)N1CCN(c2nc3c(OC)cccc3s2)CC1`?
GIRK2 act: inactive

Results for COc1ccc(CCNC(=O)c2cc(OCc3ccccc3)no2)cc1 ?
GIRK2 act: inactive

What do the screens show for `O=C(Cn1nc2c(c1NC(=O)c1c(F)cccc1Cl)CSC2)NCC1CCCO1` (centres undefined)?
GIRK2 act: inactive

Results for COc1ccc(C(=O)Nc2nnc(-c3ccc(OC)cc3)o2)cc1 ?
GIRK2 act: inactive

What do the screens show for `O=C(Cc1ccccc1)Nc1nnc(C2CCCCC2)s1`?
GIRK2 act: inactive

How did COc1ccc(N(C)S(=O)(=O)c2ccsc2C(=O)O)cc1 do in these assays?
GIRK2 act: inactive

Additional records:
How did C#CCn1c(=NC(=O)c2cc(C)nn2CC)sc2cc(C(=O)OC)ccc21 do in these assays?
GIRK2 act: inactive

How did COc1cccc(N2CCCn3c2nc2c3c(=O)n(CC(C)C)c(=O)n2C)c1 do in these assays?
GIRK2 act: inactive

What do the screens show for `C=C(C)COc1ccc(-c2nc(N)nc(C)c2Oc2ccccc2OC)c(O)c1`?
GIRK2 act: inactive

How did NC(=O)c1coc(NC(=O)c2ccccc2)n1 do in these assays?
GIRK2 act: inactive

What do the screens show for `COc1cc(-c2ccc(=O)[nH]n2)ccc1OC(F)F`?
GIRK2 act: inactive

How did O=C(c1csc(-n2cccc2)n1)N1CCN(c2ccccn2)CC1 do in these assays?
GIRK2 act: inactive

Results for CSc1ccc(/C=C2\C=C(CC(=O)NCc3ccc(Br)cc3)c3cc(F)ccc32)cc1 ?
GIRK2 act: inactive

What do the screens show for `COCCN(Cc1ccoc1)S(=O)(=O)c1cn(C)cn1`?
GIRK2 act: inactive

Results for COC(=O)C1CCN(C(=O)c2csc(-c3cnccn3)n2)CC1 ?
GIRK2 act: inactive

What do the screens show for `CCCCCCCCNC(=O)Cc1c(C)n(C(=O)c2ccc(Cl)cc2)c2ccc(OC)cc12`?
GIRK2 act: inactive

Results for COc1ccc(Cc2nc3ccccc3n2CC(N)=O)cc1OC ?
GIRK2 act: inactive

What do the screens show for `CCOc1ccc(OCC)c(NC(=O)c2n[nH]nc2Nc2ccc(OC)cc2)c1`?
GIRK2 act: inactive

How did Cc1ccc(C(O)CN2CCN(c3ccccn3)CC2)c(C)c1 (centres undefined) do in these assays?
GIRK2 act: inactive

What do the screens show for `Cc1ccnc(Nc2cc(NCCNS(=O)(=O)c3ccccc3Cl)ncn2)c1`?
GIRK2 act: inactive

How did O=C(NCc1cccs1)c1cc(-c2ccc3c(c2)OCO3)n[nH]1 do in these assays?
GIRK2 act: inactive

How did O=C(c1cccc2ccccc12)N1CCC(Oc2ccc(C(F)(F)F)cn2)CC1 do in these assays?
GIRK2 act: inactive

What do the screens show for `O=C(NCCCc1ccccc1)c1ccc(Oc2nccnc2N2CCSCC2)cc1`?
GIRK2 act: inactive

How did Cc1ccc(C)c(N2CCN(C(=O)c3snc4c(=O)n(CC(C)C)c(=O)[nH]c34)CC2)c1 do in these assays?
GIRK2 act: inactive

Results for O=C(Cc1csc(-n2cccc2)n1)Nc1ccc(F)c(F)c1 ?
GIRK2 act: inactive

An excerpt; count on the stated rates, not on these rows.
